Bioassay records deposited in PubChem by National Center for Advancing Translational Sciences (NCATS).
VDR inh = blocks the human vitamin D receptor. P11473. VDR-SRC2-3 peptide fluorescence polarization, 2 h. hit rate 0.93% among 400,000. Potency, µM, without a hit: max response, negative = inhibition, usual class: inhibitors; active means well fitted inhibition curve with a large enough effect; inconclusive means small, poorly fitted or top-dose-only effect, or another doubt; inactive means no such curve, though single readings can be large or run the other way; further: series mostly up to about 120 µM
Target sequence (P11473 whole entry, looked up): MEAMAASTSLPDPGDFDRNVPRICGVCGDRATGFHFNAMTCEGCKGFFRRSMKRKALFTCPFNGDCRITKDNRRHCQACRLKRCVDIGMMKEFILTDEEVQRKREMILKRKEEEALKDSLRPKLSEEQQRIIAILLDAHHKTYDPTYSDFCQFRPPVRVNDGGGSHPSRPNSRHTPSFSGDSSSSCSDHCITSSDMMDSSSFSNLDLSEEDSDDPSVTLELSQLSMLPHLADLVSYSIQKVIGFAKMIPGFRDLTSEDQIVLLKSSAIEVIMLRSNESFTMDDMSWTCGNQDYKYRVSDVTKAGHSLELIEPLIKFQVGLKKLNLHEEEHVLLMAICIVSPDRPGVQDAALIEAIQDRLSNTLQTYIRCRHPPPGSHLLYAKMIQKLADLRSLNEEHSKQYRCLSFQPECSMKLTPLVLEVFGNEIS
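Inhibition of the VDR/SRC2-3 peptide interaction is quantified by fluorescence polarization. Compounds (23 nl, pintool) incubate with the reagents for 2 hours at ambient room temperature.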
* marks the source's active call; other numbers are inactive results; ? = inconclusive; & = joins results of further samples. On the % scale 0 is the no-effect control and ±100 the full control effect; potency means the concentration at half of the fitted maximal effect. An excerpt (hit frequency here may not be typical).

smiles	VDR inh
Nn1c(SCC(=O)Nc2nccs2)nncc1=O	-26%
O=C(NC1=NCCS1)c1ccc(Cl)s1	-11%
C=C(C)C1CC=C(CN2CC(C)OC(C)C2)CC1 (stereo not drawn)	12%
CSc1ccc(CCNC(=O)C(C)n2nc(C)c3c(C)n(-c4ccccc4)nc3c2=O)cc1 (stereo not drawn)	16%
Cc1ccc(NC(=O)C2CCCN(S(=O)(=O)c3cccc4nsnc34)C2)cc1C (stereo not drawn)	-15%
C[C@@H]1CN([C@H](C)CO)C(=O)c2cc(NC(=O)Cc3cn(C)c4ccccc34)ccc2O[C@H]1CN(C)S(=O)(=O)c1ccc(F)cc1	5%
CCOc1ccccc1N1CCN(C(=O)CC(C)(C)C)CC1	1%
O=C(Cc1ccccc1)Nc1ccc(NC(=O)c2cccc(Cl)c2)cc1	-28%
COc1cc2[nH]c(=O)n(Cc3ccc(C(=O)NC4CCCC4)cc3)c(=O)c2cc1OC	7%
NC(=O)C(c1cccc(Cl)c1)c1ncc(C(F)(F)F)cc1Cl (stereo not drawn)	-7%
CC(C)(C)NC(=O)COc1ccc(CNCc2cccnc2)cc1	-1%
N#CCSc1nc2cc(C(=O)N3CCC(C(N)=O)CC3)ccc2c2nc3ccccc3n12	2%
CCCN(CC1CC1)C(=O)COC(=O)c1ccc(C)cc1O	7%
Cc1ccc2[nH]c3c(c2c1)CN(C(=O)CN1CCN(Cc2ccc4c(c2)OCO4)CC1)CC3	-2%
CCOc1ccccc1-n1c(SCC(=O)N2CCCC2)nnc1-c1ccc(O)cc1	7%
CCOC(=O)c1nn(-c2ccc(C)c(Cl)c2)c(=O)c(C#N)c1C	-5%
COc1nc(-c2ccc(Cl)cc2)ccc1-c1noc(-c2ccco2)n1	11%
CC1CCCN(S(=O)(=O)c2ccc(C(=O)Nc3nnc(-c4ccco4)o3)cc2)C1 (stereo not drawn)	0%
Cc1ccc(NC(=O)Cc2ccc(Cl)c(Cl)c2)cc1S(=O)(=O)N(C)C	-10%
CCCCC(=O)Nc1nnc(S(=O)(=O)N(CC)c2ccc(OC)cc2)s1	7%
Cc1c(C(=O)N2CCCCC2)oc2ccc(S(=O)(=O)N3CC(C)CC(C)C3)cc12 (stereo not drawn)	8%
COCCNC(=O)c1cc(-c2cccc(Cl)c2)on1	-13%
O=C1[C@@H]2C(c3ccc(F)cc3)=NO[C@@H]2C(=O)N1Cc1ccccc1	11%
COc1cccc(C2C(C(N)=O)=C(C)Nc3ncnn32)c1 (stereo not drawn)	-2%
Cc1ccccc1NC(=O)C12CC3CCC1(C)C3(C)CO2 (stereo not drawn)	-1%
C(=C\c1nc2ccccc2[nH]1)/c1ccccc1	2%
O=C(c1ccc2c(c1)N(Cc1ccccc1F)C(=O)c1ccccc1S2=O)N1CCN(c2ccccc2)CC1 (stereo not drawn)	-20%
CCCOc1cccc(C2C(C(=O)c3cccs3)=C(O)C(=O)N2Cc2cccnc2)c1 (stereo not drawn)	-11%
CCn1nnnc1SCC(=O)N1CCN(c2ccccc2)CC1	-21%
O=C(c1cccc(F)c1)N1CCC2(CC1)CCN(c1ccccn1)CC2	-13%
CCn1cc(C(=O)OCC(=O)Nc2cc(S(=O)(=O)N(C)C)ccc2C)c(=O)c2ccc(C)nc21	-14%
O=C(CCNS(=O)(=O)c1ccc2c(c1)CCN2C(=O)C1CC1)Nc1ccc(Cl)cc1	5%
CCOc1ccc(/C(O)=C2/C(=O)C(=O)N(c3ccccn3)C2c2ccc(Cl)cc2)c(C)c1 (stereo not drawn)	-13%
CCOc1ccc(-c2cn3c(n2)sc2cc(C(=O)NCCC4=CCCCC4)ccc23)cc1	0%
CC(C)(C)N(Cc1ccccc1)C(=O)COC(=O)C1CCCCC1	9%
CCOc1ccc2nc(SCC(=O)NCC3CCCO3)sc2c1 (stereo not drawn)	12%
COc1ccc(S(=O)(=O)Cc2ccc(C(=O)N3CCC(C(N)=O)CC3)o2)cc1	-3%
COC(=O)c1cc(OC)c(OC)cc1NC(=O)c1ccco1	0%
CCOc1c(CNCCNC(=O)c2nonc2N)cccc1OC	15%
Cc1ccc(S(=O)(=O)CCC(=O)c2ccc(O)cc2O)cc1	?
CCNC(=O)NC(=O)C(C)On1nnc2ccc(S(=O)(=O)N(CC)CC)cc21 (stereo not drawn)	-15%
COc1ccc(C(=O)NCCc2cn3ccc(C)cc3n2)cc1	?
O=C1CCN(Cc2ccc(Br)cc2)CCN1[C@H](CO)Cc1ccccc1	10%
COc1cc2c(cc1OC)-c1cc3cc(OC)c(OC)cc3c(=O)n1CC2	15%
CC(=O)Nc1ccc(OCC(O)Cn2c(CO)nc3ccccc32)cc1 (stereo not drawn)	7%
CC1(C)CC(=O)C(C2c3ccccc3S(=O)(=O)c3ccccc32)C(=O)C1	14%
O=C(c1cccn2c(=O)c3ccccc3nc12)N1CCN(Cc2ccc3c(c2)OCO3)CC1	4%
O=C(O)CC/C(=N/NC(=O)c1cccs1)c1ccccc1	-1%
CN(Cc1ccco1)c1ncnc2ccc(-c3ccccc3C#N)cc12	-23%
O=C(NCc1cccs1)C(=O)NCC(c1ccco1)N1CCN(c2ccccc2F)CC1 (stereo not drawn)	-14%
COc1ccc(NC(=O)c2ccc3c(c2)c(C)c(C)n3Cc2ccc(F)cc2)cc1	7%
CC(=O)Nc1ccc(NC(=O)c2ccc3c(c2)NC(=O)c2ccccc2S3)cc1	4%
O=C(COC(=O)C1=COCCO1)Nc1ccc(Br)cc1Br	5%
COC(=O)c1cc(NC(=O)c2nccnc2C(=O)O)cc(C(=O)OC)c1	6%
Cc1cccc(NC(=O)C2CCN(c3nnc(-n4c(C)ccc4C)s3)CC2)c1C	4%
Nc1nc(-c2cccnc2)nn1S(=O)(=O)c1ccccc1	-7%
O=C1CCCc2[nH]c(=O)c(-c3nc(-c4cccc([N+](=O)[O-])c4)cs3)cc21	-5%
COc1ccc(OC)c(/C=C/C(=O)N2C(=O)c3cccc(N)c3C2=O)c1	-20%
CCC(C)(C)NC(=O)C(c1cccn1C)N(C(=O)Cn1nnc2ccccc21)c1ccccc1OC (stereo not drawn)	-2%
O=C(c1ccc(-n2cncn2)c([N+](=O)[O-])c1)N1CCN(S(=O)(=O)c2cccc(F)c2)CC1	1%

3 entries already listed, sorted by formula weight, lowest first.
smiles	VDR inh
COc1ccc(OC)c(/C=C/C(=O)N2C(=O)c3cccc(N)c3C2=O)c1	-20%
O=C1CCCc2[nH]c(=O)c(-c3nc(-c4cccc([N+](=O)[O-])c4)cs3)cc21	-5%
O=C(NCc1cccs1)C(=O)NCC(c1ccco1)N1CCN(c2ccccc2F)CC1 (stereo not drawn)	-14%

Later entries:
smiles	VDR inh
COc1ccc2oc(C(=O)NCc3cc(OC)c(OC)cc3OC)c(C)c2c1	13%
CCOC(=O)c1sc(NC(=O)CCN2C(=O)C3CCCCC3C2=O)cc1C (stereo not drawn)	8%
CC(NC(=S)Nc1ccc(OC(F)F)cc1OC(F)F)C(C)(C)C (stereo not drawn)	-21%
Cc1cn(S(=O)(=O)c2cc(Br)ccc2Br)cn1	-2%
COc1cccc(C2=NOC(C(=O)Nc3cccnc3Cl)C2)c1OC (stereo not drawn)	-2%
Cc1cc(Nc2cccc([N+](=O)[O-])c2)c2ccccc2n1	-1%
COc1ccc(NC(=O)Nc2ccc3c(c2)C(=O)N([C@H](C)CO)C[C@H](C)[C@@H](CN(C)C(=O)Nc2c(C)noc2C)O3)cc1	9%
Cc1cc(=O)[nH]c2nnc(SCc3ccccc3F)n12	6%
O=C(Cn1cnc2c(NCc3ccccc3)ncnc21)NCc1nc2ccccc2[nH]1	1%
COc1cc(-c2ccc3oc(-c4ccsc4)cc3c2)cc(OC)c1OC	10%
N#Cc1c(-c2cccs2)cc(-c2cccs2)[nH]c1=O	9%
Cc1cc(C)c2oc(C(=O)NCCc3ccc(S(N)(=O)=O)cc3)cc(=O)c2c1	15%&11%
CCOC(=O)COc1ccc([N+](=O)[O-])cc1-c1ccnc2cc(-c3ccc(C)cc3)nn12	-2%
COc1ccc(C(=O)NC(=S)N2CCN(c3ccccc3O)CC2)cc1	-28%
COc1ccc(NS(=O)(=O)c2cccc(C(=O)NCC(c3ccc(F)cc3)N3CCOCC3)c2)cc1 (stereo not drawn)	0%
COc1ccccc1CNC(=O)CN1C(=O)COc2ccc(S(=O)(=O)N3CCCCC3)cc21	1%&7%
CC(=O)Nc1ccc(OCC(O)Cn2nc(C)nc2C)cc1 (stereo not drawn)	0%
Cc1ccc(-c2nc(NC(=O)CSc3ncn[nH]3)ns2)cc1	14µM*
COc1cccc(NS(=O)(=O)c2cc3c4c(c2)CCC(=O)N4CCC3)c1	1%
COC(=O)C[C@H]1c2cc(F)ccc2S(=O)(=O)N1C(C)C	-6%
CN1C(=O)C2(N=c3ccccc3=N2)c2ccccc21	-1%
CCCN(C(=O)c1cc2c(=O)[nH]c3ccc(C)cc3c2s1)c1ccc(CC)cc1	15%
Cc1cc(C(=O)CN2C(=O)NC3(CCCc4ccccc43)C2=O)c(C)n1Cc1ccccc1 (stereo not drawn)	11%
COc1ccc(C(=O)C2CCCN(C(=O)c3c4c(nn3C)CCCC4)C2)cc1F (stereo not drawn)	-2%
O=C(NCCSCc1ccco1)Nc1ccc(Cl)cc1	-6%
CCOC(=O)c1[nH]c(C)c(/C(O)=C2\C(=O)C(=O)N(CCCN3CCOCC3)C2c2cccnc2)c1C (stereo not drawn)	-2%
O=C(COC(=O)CSCc1ccccc1)NCc1ccccc1	11%
Cc1c(-n2cc(C(=O)c3cc(Br)ccc3O)cc(C#N)c2=O)c(=O)n(-c2ccccc2)n1C	5%
CSc1nc2ccccc2c(=O)n1C1CCOC(C)(C)C1 (stereo not drawn)	2%
Nc1nc(-c2ccco2)nn1C(=O)CCc1ccccc1	-11%
CCOc1ccc(NC(=O)C2CCN(S(C)(=O)=O)CC2)cc1	-15%
O=C1C(Cl)=C(N2CCOCC2)C(=O)N1c1cccc(Cl)c1	25µM*
CS(=O)(=O)N1CCc2cc(C(=O)Nc3ccc(C(F)(F)F)cc3)ccc21	7%
CCOc1ccc(C2CC(c3ccccc3C)n3nc(N)nc3N2)cc1 (stereo not drawn)	?
c1ccc(-c2cn3nc(-c4ccccc4)sc3n2)cc1	-8%
COc1ccccc1N1CCN(C2=NS(=O)(=O)c3ccccc32)CC1	13%
CN(Cc1ccco1)S(=O)(=O)c1ccc(CN2C(=O)c3cccnc3C2=O)s1	-4%
CCOC(=O)NC(=S)Nc1ccc(C(C)(C)C)cc1Br	-11%
COC(=O)c1ccccc1NC(=O)C1CCCN(S(=O)(=O)c2ccc(F)cc2)C1 (stereo not drawn)	-1%
c1ccc(Sc2ncnc3ccccc23)cc1	-16%
O=C1C(=C2SCCCS2)CC/C1=C\c1ccc(F)cc1	3%
O=c1[nH]c(/C=C\c2ccccc2F)nc(O)c1[N+](=O)[O-]	?
CCC(C)NC(=O)c1ccccc1NC(=O)c1ccc(CSc2ccccc2)cc1 (stereo not drawn)	0%
CC(C)C(c1nnnn1C(C)(C)C)N1CCN(c2cccc(Cl)c2)CC1 (stereo not drawn)	-3%
COc1cccc(NC2c3ccccc3C(=O)N2Cc2ccco2)c1 (stereo not drawn)	-26%
COc1cc2c(cc1OC)CN(CC(=O)Nc1ccc(F)cc1)C(C(=O)O)C2 (stereo not drawn)	-2%
NS(=O)(=O)c1ccc(NC(=O)COC(=O)/C(=C/c2cccs2)c2cccs2)cc1	0%
COc1cccc(C(=O)c2cn(CC(=O)NCc3ccccc3Cl)c3nc(C)ccc3c2=O)c1	4%
Cc1ccc(CN2CCSc3ccc(C(=O)Nc4ccc(C)cc4)cc32)cc1	-5%
Cc1ccsc1C(=O)Nc1cccc(-n2cnnn2)c1	12%
CCCCCCSc1cccc(-c2nc3cc(C)ccn3c2NC2CCCCC2)c1	0%
N#Cc1ccc(OCC(=O)NN2Cc3ccccc3C2=N)cc1	-7%
Cc1cc(C)c(CN2CCC(n3nccc3NC(=O)c3ccccc3Cl)CC2)cc1C	-8%
CC1CCCCN1CCNC(=O)c1ccc(Cn2c(SCc3ccccc3)nc3cccnc32)cc1 (stereo not drawn)	-3%
O=C1CC2(CCCCC2)Oc2ccc(OCC(=O)N3CCOCC3)cc21	17%
COc1ccc2c(c1)CCc1c(C(=O)NCc3ccc(Cl)cc3)noc1-2	-14%
COc1cc(CC(=O)Nc2nc(-c3ccc(F)c(F)c3)cs2)cc(OC)c1OC	4%
CCCSc1nc(C)c2cc(C)cc(C)c2n1	-15%
O=C(CSc1nc2ccccc2c(=O)n1CCCN1CCOCC1)Nc1ccc2c(c1)OCO2	-14%

Some of the entries so far, with the structure last:
| VDR inh | Molecule |
| --- | --- |
| -14% | COc1ccc2c(c1)CCc1c(C(=O)NCc3ccc(Cl)cc3)noc1-2 |
| 4% | COc1cc(CC(=O)Nc2nc(-c3ccc(F)c(F)c3)cs2)cc(OC)c1OC |
| -15% | CCCSc1nc(C)c2cc(C)cc(C)c2n1 |
| -14% | O=C(CSc1nc2ccccc2c(=O)n1CCCN1CCOCC1)Nc1ccc2c(c1)OCO2 |
